# Assay outcomes: PubChem, National Center for Advancing Translational Sciences (NCATS)
# Vaccinia mCherry – inhibitors of vaccinia virus infection (mCherry reporter signal). Vaccinia virus mCherry reporter infection, fluorescence; about a quarter of the inactives have no number. Potency, µM (titrated, usually from 36.5 µM), inactives show at the top dose activity change, negative = inhibition, actives largely listed as inhibitors. 310,000 compounds, 0.63% hits; active = well fitted inhibition curve with a large enough effect; inconclusive = small, poorly fitted or top-dose-only effect; inactive = no such curve, though single readings can be large or run the other way; tested in A549 cells; note: nearly all actives have a fitted effect of over 35% in size; inactives centre near -10
# Vaccinia Venus – vaccinia inhibition (Venus reporter) | Vaccinia virus Venus reporter expression, fluorescence | Potency, µM (series often up to 36.5 µM), without a hit: top-dose activity change, negative = inhibition, most hits filed as inhibitors | 330,000 compounds, 0.46% hits | AID 720580; active means well fitted inhibition curve with a large enough effect; inconclusive means small, poorly fitted or top-dose-only effect; inactive means no such curve, though single readings can be large or run the other way; tested in A549 cells; note: nearly all actives have a fitted effect of over 30% in size; inactives centre near -10
# Numbers without * were called inactive; i = inactive; u = inconclusive; x = no result given; & = joins results of further samples. % is set by controls: 0 for no effect and ±100 for the full control effect; potency is the fitted concentration of half-maximal effect.
# Value order: Vaccinia mCherry | Vaccinia Venus
[1] COc1ccccc1CNC(=O)c1oc2c(c1C)-c1nn(Cc3ccc(Cl)cc3)cc1CC2
    -6% | -9%
[2] CCn1c(SCC(=O)Nc2ccc(C)cc2)nc2nc3c(cc2c1=O)CCCC3
    -1% | -14%
[3] Cc1ccc(C(=O)N2CCCC2)cc1S(=O)(=O)N1CCCCC1
    -10% | -3%
[4] CC1CCN(c2ccc3nnc(CCC(=O)N4CCCCC4)n3n2)CC1
    u | 1%
[5] COc1ccccc1-c1noc(CCC(=O)N2CCN(c3cc(C)ccc3C)CC2)n1
    -29% | -6%
[6] Fc1ccc2nc(-c3ccccc3)ccc2c1
    1% | -1%
[7] CCc1ccccc1NC(=O)Cn1nnc(-c2nc(-c3ccncc3)no2)c1N
    -4% | -10%
[8] CC(C)(C)c1ccc(-c2noc(CCC(=O)Nc3cccc(Cl)c3)n2)cc1
    0% | -6%
[9] CCOc1ccc(S(=O)(=O)NCCCN2CCOCC2)cc1
    -13% | 0%
[10] CCCNC(=O)c1ccc(N2CCC3(CC2)CC(c2cccc(Br)c2)=NO3)c(NC(=O)c2c(Cl)cccc2Cl)c1
    12% | -8%
[11] COc1cccc(-c2ccc3c(c2)O[C@H](CN(C)C(=O)c2ccccc2F)[C@H](C)CN([C@H](C)CO)S3(=O)=O)c1
    -20% | u
[12] CCOC(=O)N1CC=C2C(C#N)=C(N)C(C#N)(C#N)[C@H](c3cccs3)C2C1 (stereo partly drawn)
    -25% | -18%
[13] Cc1ccc(NC(=O)COC(=O)CCc2ccc(S(=O)(=O)N3CCOCC3)cc2)c(C)c1
    i | -1%
[14] CCc1ccccc1NC(=O)CSc1nc2ncccc2o1
    -10% | -20%
[15] CCCNC(=O)CN1C(=O)COc2ccc(S(=O)(=O)N3CC(C)CC(C)C3)cc21 (stereo not drawn)
    -2% | -12%
[16] CCOc1cc(C(=O)NCc2ccc3c(c2)CCN3C(=O)c2ccc(F)cc2)cc(OCC)c1OCC
    -13% | -8%
[17] Cc1ccc(OCC(=O)Nc2ccc(C(N)=O)cc2)cc1
    -11% | -1%
[18] Fc1ccc(CSc2nnc(-c3cccs3)o2)cc1
    i | -13%
[19] COc1ccc(N2CCN(C(=O)Cc3ccc(S(=O)(=O)N4CCOCC4)s3)CC2)cc1
    -4% | -10%
[20] O=C(NCC1CCCO1)C1CCCN(S(=O)(=O)c2cccc(C(F)(F)F)c2)C1 (stereo not drawn)
    -4% | 6%
[21] CCOC(=O)c1ccc(NC(=O)CN2C(=O)C3C4C=CC(C4)C3C2=O)cc1 (stereo not drawn)
    -18% | -9%
[22] O=C(c1ccc(N2CCCC2=O)cc1)N1CCN(c2ccccc2)CC1
    i | -14%
[23] Nc1ccc2c(c1)Cc1c(F)cccc1-2
    u | -3%
[24] C=CCN(CC=C)c1nc2ccccc2nc1C(C#N)C(=O)OC(C)C (stereo not drawn)
    x | 12%
[25] CCN(CCCNC(=O)Cn1ncc2c([nH]c3ccc(C)cc32)c1=O)Cc1ccccc1
    -13% | -4%&-12%
[26] CCCCN=C(NNc1ccc(Br)cc1)C(=O)OCC
    i | -10%
[27] CCOc1ccc(CCN2C(=S)N([C@@H](Cc3ccc(O)cc3)CN3CCC[C@@H]3CN3C(=S)NC[C@@H]3Cc3ccc(O)cc3)C[C@@H]2Cc2ccc(O)cc2)cc1
    u | u
[28] Cc1cccc(N(CC(=O)NC2CCCC2)C(=O)CNC(=O)c2ccco2)c1C
    i | -5%
[29] CCOc1ccc(NCc2cccn2-c2nnc(N3CCC(C(=O)NCCc4ccc(OCC)c(OCC)c4)CC3)s2)cc1
    u | u
[30] O=C1CCCC(c2ccccc2)N1 (stereo not drawn)
    -7% | -6%
[31] COC(=O)c1c(-c2ccccc2)csc1NC(=O)C1CC=CCC1C(=O)O (stereo not drawn)
    0% | 3%
[32] CCOC(=O)C1CCCN(CC(=O)Nc2cc(C)cc(C)c2)C1 (stereo not drawn)
    i | -4%
[33] NC(Cc1c[nH]c2ccc(OCc3ccccc3)cc12)C(=O)O (stereo not drawn)
    u | -5%
[34] CCS(=O)(=O)N1CCC(C(=O)NCCc2ccc(C)cc2)CC1
    i | 0%
[35] Cc1cccc(OCCCC(=O)O)c1
    x | 6%
[36] CCCCCCCCNc1ccc(/C=C/c2ccnc3ccccc23)cc1
    -14% | -9%
[37] CCOC(=O)c1sc2nc(CC(=O)OC)nc(NCc3ccco3)c2c1C
    i | 11%
[38] CCNC(=O)CC1SC(=Nc2ccc(C)cc2)N(CC)C1=O (stereo not drawn)
    -10% | 2%
[39] O=C(NCc1ccncc1)c1cccc(Cn2cc(Br)cn2)c1
    x | -6%
[40] O=C(c1ccccc1Cl)N1CCC(n2cccc2)CC1
    -2% | -11%

# An excerpt taken from the entries so far, for reference:
# Value order: Vaccinia mCherry | Vaccinia Venus
[16] CCOc1cc(C(=O)NCc2ccc3c(c2)CCN3C(=O)c2ccc(F)cc2)cc(OCC)c1OCC
    -13% | -8%
[17] Cc1ccc(OCC(=O)Nc2ccc(C(N)=O)cc2)cc1
    -11% | -1%
[18] Fc1ccc(CSc2nnc(-c3cccs3)o2)cc1
    i | -13%
[19] COc1ccc(N2CCN(C(=O)Cc3ccc(S(=O)(=O)N4CCOCC4)s3)CC2)cc1
    -4% | -10%
[20] O=C(NCC1CCCO1)C1CCCN(S(=O)(=O)c2cccc(C(F)(F)F)c2)C1 (stereo not drawn)
    -4% | 6%
[21] CCOC(=O)c1ccc(NC(=O)CN2C(=O)C3C4C=CC(C4)C3C2=O)cc1 (stereo not drawn)
    -18% | -9%
[22] O=C(c1ccc(N2CCCC2=O)cc1)N1CCN(c2ccccc2)CC1
    i | -14%
[23] Nc1ccc2c(c1)Cc1c(F)cccc1-2
    u | -3%
[24] C=CCN(CC=C)c1nc2ccccc2nc1C(C#N)C(=O)OC(C)C (stereo not drawn)
    x | 12%
[25] CCN(CCCNC(=O)Cn1ncc2c([nH]c3ccc(C)cc32)c1=O)Cc1ccccc1
    -13% | -4%&-12%
[26] CCCCN=C(NNc1ccc(Br)cc1)C(=O)OCC
    i | -10%
[27] CCOc1ccc(CCN2C(=S)N([C@@H](Cc3ccc(O)cc3)CN3CCC[C@@H]3CN3C(=S)NC[C@@H]3Cc3ccc(O)cc3)C[C@@H]2Cc2ccc(O)cc2)cc1
    u | u
[28] Cc1cccc(N(CC(=O)NC2CCCC2)C(=O)CNC(=O)c2ccco2)c1C
    i | -5%
[29] CCOc1ccc(NCc2cccn2-c2nnc(N3CCC(C(=O)NCCc4ccc(OCC)c(OCC)c4)CC3)s2)cc1
    u | u
[30] O=C1CCCC(c2ccccc2)N1 (stereo not drawn)
    -7% | -6%
[31] COC(=O)c1c(-c2ccccc2)csc1NC(=O)C1CC=CCC1C(=O)O (stereo not drawn)
    0% | 3%
[32] CCOC(=O)C1CCCN(CC(=O)Nc2cc(C)cc(C)c2)C1 (stereo not drawn)
    i | -4%
[33] NC(Cc1c[nH]c2ccc(OCc3ccccc3)cc12)C(=O)O (stereo not drawn)
    u | -5%
[34] CCS(=O)(=O)N1CCC(C(=O)NCCc2ccc(C)cc2)CC1
    i | 0%
[35] Cc1cccc(OCCCC(=O)O)c1
    x | 6%
[36] CCCCCCCCNc1ccc(/C=C/c2ccnc3ccccc23)cc1
    -14% | -9%
[37] CCOC(=O)c1sc2nc(CC(=O)OC)nc(NCc3ccco3)c2c1C
    i | 11%

# New compounds follow.
# Value order: Vaccinia mCherry | Vaccinia Venus
[41] CCc1c(O)cc2n(c1=O)-c1ccc(Cl)cc1C2(C)C
    i | -23%
[42] Cc1nnc(SCC(=O)Nc2cc(Cl)ccc2Cl)n1CC1CCCO1 (stereo not drawn)
    0% | -15%
[43] COC(=O)C1=C(C)N(Cc2ccccc2)C(=NCC(C)C)N[C@H]1c1cccc(C(F)(F)F)c1
    u | u
[44] COc1cccc(N(C(=O)Cn2nnc(-c3ccc(C)o3)n2)C(C(=O)NC2CCCC2)c2ccncc2)c1 (stereo not drawn)
    i | -1%
[45] COCc1cc(C)nc2c1C(=O)NC(c1ccc(C)cc1)N2Cc1ccccc1 (stereo not drawn)
    -4% | -17%
[46] CCOc1cc(N2CCOCC2)c(OCC)cc1NC(=O)c1cccc(S(=O)(=O)N2CC(C)OC(C)C2)c1 (stereo not drawn)
    -3% | -23%
[47] CCn1cc(S(=O)(=O)CC(=O)Nc2ccc3c(c2)OCO3)c2ccccc21
    0% | -15%
[48] O=c1c2cc3c(cc2n(Cc2cccc(F)c2)c(=O)n1Cc1nc(-c2ccccc2)no1)OCO3
    -26% | -27%
[49] COC(=O)C1=C(C)NC2=C(C(=O)c3ccccc32)C1c1ccc(-c2ccc(C(=O)O)cc2)o1 (stereo not drawn)
    i | -10%
[50] CCc1nccn1S(=O)(=O)c1cc(Br)ccc1Br
    4% | 10%
[51] O=C(NCCc1ccc(Cl)cc1)c1cc(-c2ccc(Cl)cc2)n[nH]1
    -3% | -2%
[52] CCN(CC)S(=O)(=O)c1ccc2[nH]c(=O)cc(C(=O)Nc3cccc(C(C)=O)c3)c2c1
    -5% | 5%
[53] CCCN(CCC)CCNC(=O)C1CCCN(S(=O)(=O)c2ccc3c(c2)oc(=O)n3C)C1 (stereo not drawn)
    -5% | -1%
[54] O=C(N/N=C/c1cccc(F)c1)c1c(O)c2ccccc2[nH]c1=O
    -20% | -12%
[55] CC(=O)OC[C@@H]1CN(Cc2ccccc2)C[C@H](n2cnc3c(NC4CC4)ncnc32)O1
    i | -2%
[56] O=C(CCCn1cc([N+](=O)[O-])cn1)N1CCCCC1
    i | -10%
[57] Cc1cccc(/C=C2/SC(=O)N(Cc3ccccc3)C2=O)n1
    -12% | -17%
[58] Cc1cccc2cc(COC(=O)c3cccnc3)c(=O)[nH]c12
    x | -1%
[59] CCN(CC(=O)Nc1c(F)cccc1F)C(=O)c1cc(-c2cccs2)nn1-c1ccccc1
    i | -10%
[60] O=C1c2ccccc2C(=O)N1c1ccc(S(=O)(=O)N2CCN(c3ccccc3)CC2)cc1
    x | -12%
[61] O=C(CN1C(=O)c2ccccc2C1=O)Nc1ccccc1F
    x | -9%
[62] COc1cc(NC(=O)CN2C(=O)c3ccccc3Sc3ccc(C(=O)N4CCCC4)cc32)cc(OC)c1
    -24% | -20%
[63] CCOc1ccc(/C=N/OCC(=O)Nc2cc(C)on2)cc1
    -4% | -21%
[64] CC(C)N(C)S(=O)(=O)c1ccc(NC(=O)CSC(=S)N2CCCC2)cc1
    -18% | -17%
[65] O=C(CSc1ncn[nH]1)N1N=C2/C(=C\c3ccco3)CCCC2C1c1ccco1 (stereo not drawn)
    u | -28%
[66] Cc1ccc(O)c(-c2cc(-c3ccccc3F)[nH]n2)c1
    x | u
[67] COc1ccc2c(c1)Cc1sc(NC(=O)c3cccc(C)c3)nc1-2
    -10% | -4%
[68] O=C(CN1C(=O)c2ccccc2S1(=O)=O)N1CCCCC1
    -14% | -5%
[69] COc1ccc(-n2c(=O)c3c4c(sc3n(Cc3c(F)cccc3Cl)c2=O)CN(C(C)=O)CC4)cc1OC
    -17% | -1%
[70] CCCn1c(CNC(=O)c2cccs2)nc2ccccc21
    -14% | -13%
[71] CCOc1ccc(OCC)c(NC(=O)CSCC(=O)O)c1
    -16% | -11%
[72] COc1ccccc1NS(=O)(=O)c1ccc2c(c1)NC(=O)CC(=O)N2
    -12% | -8%
[73] COc1ccc(OC)c(/C=C/c2nc3ccccc3c(=O)n2-c2ccc(F)c(Cl)c2)c1
    i | -26%
[74] COc1cc(OC)cc(C(=O)OCC(=O)Nc2cccc(S(=O)(=O)NC3=NCCCCC3)c2)c1
    -7% | -17%
[75] COc1cc(Br)ccc1NC(=O)c1ccccc1-c1ccccc1C(=O)O
    -10% | 11%
[76] Cc1occc1-c1nnc(SCC(=O)Nc2ccc(F)cc2)n1C
    -6% | -2%
[77] COc1ccc(OCC(=O)Nc2ccccc2N2CCN(C)CC2)cc1
    -4% | -3%
[78] COc1ccc(CCN(Cc2cccs2)S(=O)(=O)c2ccc(S(=O)(=O)N3CCCCCC3)cc2)cc1OC
    -17% | 3%
[79] COC(=O)c1ccc(NC(=O)C2CCCN2S(=O)(=O)c2ccc(F)cc2)cc1 (stereo not drawn)
    i | -8%
[80] O=C(Nc1ccc(-c2cccc(F)c2)cc1)C1CCCN(Cc2ccccn2)C1 (stereo not drawn)
    -18% | -28%
[81] COc1ccc(CNC(=O)/C=C/c2cc3c(cc2Br)OCO3)cc1
    x | -3%
[82] Cc1ccc(-c2nc3ccccn3c2Nc2ccc3c(c2)OCCO3)o1
    -13% | -10%
[83] CCC1CN(Cc2c(C)nc3sccn23)Cc2cc(OC)ccc2O1 (stereo not drawn)
    -19% | -4%
[84] COCCN(C(=O)CCC(=O)Nc1cccnc1)C(C(=O)NC1CCCCC1)c1ccccc1 (stereo not drawn)
    0% | -2%
[85] Cc1ccc(Oc2ncnc(N)c2[N+](=O)[O-])cc1
    -13% | -23%
[86] COc1cc2nc(=S)n(CCCN3CCOCC3)c(N)c2cc1OC
    -10% | -15%
[87] O=C(CNC(=O)c1ccc2c(c1)OCCO2)N/N=C/c1ccc([N+](=O)[O-])cc1
    -10% | -8%

# Random draw from the library, and some 0.86% of all compounds hit somewhere here.
